MgrA-DNA mod = S. aureus MgrA-DNA binding modulation; fluorescence polarization; 0.13% of 84,000 active; AID 602314; inhibition, %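 (about 10 µg/mL by stock and volumes)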;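 active = above 50% in either of two replicates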;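 note: 0% = protein plus DNA without compound and 100% = DNA alone without protein; higher means less MgrA bound to DNA so lower polarization; one replicate is shown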
S aureus helic = S. aureus DNA helicase inhibition | purified S. aureus helicase, fluorescence unwinding assay; about half of the hits fall short of the stated cut | inhibition, %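 (tested at about 80 µM)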 | 0.05% of 120,000 active;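 active = both duplicates at 50% or more, or one of them with a favoured structure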;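 note: 0% = mean of negative control wells and 100% = mean of positive control wells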
* marks the source's active call; other numbers are inactive results; / = not tested or not shown.

MgrA-DNA mod	S aureus helic	canonical_smiles
-1.5	-10.0	CC(=O)Nc1ccc(C(O)(C(F)(F)F)C(F)(F)F)cc1
0.0	13.0	COC(=O)C(CO)NC(=O)c1ccccc1 (stereo unspecified)
/	-18.0	Cc1ccc2c(c1)sc(=NC(=O)c1cc(Cl)sc1Cl)n2C
/	5.0	CCOCC(=O)Nc1c(C(=O)Nc2ccc(F)c(F)c2)oc2ccccc12
-1.5	/	O=C(CSc1nnc(SCC(=O)NCCSCc2ccco2)s1)NCCSCc1ccco1
1.6	7.0	Cc1cccc(C#CCN2CCCCC2)c1
/	-135.0	COc1cc(/C=C2/SC(=O)N(c3ccc(C)cc3)C2=O)ccc1O
-1.0	19.0	O=S(=O)(NCCCn1ccnc1)c1cc(Cl)ccc1Cl
/	-233.0	CCOC(=O)c1sc(N)c(C#N)c1COC(=O)c1ccc2c(=O)n3c(nc2c1)CCC3
/	26.0	CCOc1ccc(C(=O)NCC(=O)N2CCCC2)cc1
/	-4.0	Cc1cc(Oc2ccccc2F)nc(N)n1
/	13.0	CN1Cc2cccc(C(=O)O)c2C1=O
-1.5	/	Cc1cc(S(=O)(=O)N2CCN(Cc3ccccc3)CC2)c(Cl)cc1Cl
/	4.0	O=C(Nc1cccc(O)c1)c1noc2c1CCCC2
-1.1	2.0	Oc1ccc(C=Nc2ccc(N3CCOCC3)cc2)cc1O

More results.
MgrA-DNA mod	S aureus helic	canonical_smiles
-1.6	/	Cc1ccc(SCC(=O)Nc2nnc(CCS(=O)(=O)c3ccc(Cl)cc3)s2)cc1
/	20.0	Cc1ccc(S(=O)(=O)NC(c2ccccc2)c2nnc(-c3ccccc3)o2)cc1 (stereo unspecified)
/	-8.0	O=C(c1ccc2c(=O)n3c(nc2c1)CCCCC3)N1CCCc2ccccc21
-9.1	-89.0	CCN1C(=O)/C(=C\C=C2/N(CC)c3ccc(C(=O)OC)cc3N2CC)SC1=S
/	-8.0	Cc1cccc(N(Cc2ccccc2)C(=O)CSc2nc(N)nc(N)n2)c1
1.4	11.0	O=C(c1ccco1)N1CCCN(C(=O)c2ccco2)CC1
/	-8.0	Cc1cnc(NC(=O)c2ccc(OCC3CCCO3)cc2)s1 (stereo unspecified)
2.5	20.0	Cc1ccc(Cn2nnc3c(=O)n(Cc4ccc(C(F)(F)F)cc4)cnc32)cc1
1.2	/	Cc1ccc2ncccc2c1[N+](=O)[O-]
/	11.0	O=C(O)C(CO)N=Cc1c(O)c2ccccc2oc1=O (stereo unspecified)
2.2	/	CC(=O)c1cc(F)ccc1OCc1ccccc1
2.6	/	COc1cc(NC(=O)c2csc(Br)c2OC)cc(OC)c1OC
/	-3.0	O=C(OCc1cc(=O)n2ccsc2n1)C1(c2ccccc2)CC1
-0.5	2.0	COc1ccc(N(C)C(=O)c2cnc(N3CCN(c4ncccn4)CC3)c3ccccc23)cc1
/	40.0	Cc1cccc(C)c1NC(=O)CN1C(=O)c2ccccc2S1(=O)=O

(continued)
MgrA-DNA mod	S aureus helic	canonical_smiles
-0.8	-1.0	C=CCNC(=S)N1CCN(C(=S)NCC=C)CC1
2.2	5.0	O=C(c1ccccc1)c1nnc(-c2ccccc2)s1
/	-13.0	COC(=O)c1ccc(/C=C2/SC(=Nc3cccnc3)NC2=O)cc1
-1.4	4.0	O=C(NC1CCCC1)C(c1ccccc1)N(CC1CCCO1)C(=O)Cn1nnc2ccccc21 (stereo unspecified)
/	13.0	COc1ccc(NC(C)=O)cc1NC(=O)c1cc2cccnc2n(C)c1=O
/	10.0	O=C(Nc1ccc(SC(F)F)cc1)c1ccc2c(=O)n3c(nc2c1)CCC3
-1.2	-10.0	CC(C)CCSc1nc2ncn(C)c2c(=O)[nH]1
/	-4.0	Cc1cc(Cl)ccc1OCC(=O)NN1C(=O)C2C3C=CC(C3)C2C1=O (stereo unspecified)
/	11.0	CC(=O)Nc1ccc(NC(=O)COC(=O)Cc2c[nH]c3ccccc23)cc1
/	22.0	CC(C)C1N=C2c3ccccc3N=C(SCc3cc(=O)n4cc(Br)ccc4n3)N2C1=O (stereo unspecified)
2.3	8.0	Cc1cc(C)c2c(n1)sc1c(SCc3ccccc3)nc(C)nc12
5.0	27.0	Cc1ccnn2cc3c(=O)n(C)c(=O)n(C)c3c12
-1.8	-2.0	CC(C)c1ccc(NC2C=CS(=O)(=O)C2)cc1 (stereo unspecified)
1.5	5.0	CCCOC(=O)c1[nH]c2c(c1C)C(=O)CCC2
-0.3	9.0	CC1CCCC(NC(=O)c2cc(S(=O)(=O)N3CCCCC3)c[nH]2)C1C (stereo unspecified)

Next part:
MgrA-DNA mod	S aureus helic	canonical_smiles
4.9	10.0	COc1ccccc1NC(=O)c1c(N=Cc2c(O)ccc3ccccc23)cnn1C
/	8.0	COC(=O)C(C)Sc1nnc(-c2c[nH]c3ccccc23)n1-c1ccc(F)cc1 (stereo unspecified)
/	-1.0	Cc1nc(NC(C)C(=O)O)c2nc(C)oc2n1 (stereo unspecified)
-1.8	-5.0	O=C(Cc1ccccc1)NCC(=O)N1CCN(C(=O)c2ccco2)CC1
/	11.0	O=C(Nc1cccc(Cl)c1)Nc1ccc2nc3n(c(=O)c2c1)CCC3
/	-11.0	CC1CC(=O)Nc2ccccc2N1C(=O)c1cccs1 (stereo unspecified)
1.5	/	O=c1oc(-c2ccc(Br)cc2)nc2scc(-c3cccs3)c12
18.6	-7.0	O=C(c1cnccn1)N(Cc1ccc(Cl)cc1)Cc1cc2cc3c(cc2[nH]c1=O)OCCO3
-1.1	7.0	O=C(CCC1CCCCC1)NC1CCCC1
-1.1	5.0	Cc1cccc(NS(=O)(=O)c2cc(C(=O)NCc3ccco3)ccc2C)c1
/	-8.0	O=C(O)c1ccc(/C=c2/sc3n(c2=O)CCN=3)cc1
0.2	1.0	O=C(Nn1c(=O)[nH]c2ccsc2c1=O)c1ccccc1
/	3.0	COc1ccc(OC)c(NC(=O)CSc2nc3c(c(=O)n2Cc2ccccc2)SC(C)C3)c1 (stereo unspecified)
-2.7	-3.0	O=C(/C=C/C(=O)N1c2ccccc2Sc2ccccc21)c1ccccc1
/	-27.0	CCc1ccc(S(=O)(=O)Nc2c(C)nc3nc[nH]n3c2=O)cc1

(continued)
MgrA-DNA mod	S aureus helic	canonical_smiles
-3.9	2.0	COc1ccc(CCC(C)N2CCN(c3cc(C)ccc3C)CC2)cc1 (stereo unspecified)
1.9	6.0	O=C(C[n+]1cccc(/C=N/O)c1)NC12CC3CC(CC(C3)C1)C2
/	15.0	CC(C(=O)c1ccc(Cl)cc1Cl)n1cncn1 (stereo unspecified)
-1.0	2.0	COC(=O)c1ccccc1S(=O)(=O)C(C)(C)C
0.9	-10.0	Cc1cc(O)ccc1Sc1ccc(O)cc1C
-2.4	/	CC(C)(C)c1cc(-c2cc(C(F)(F)F)n3nc(-c4ccccc4)cc3n2)c2c(c1)C(C)(C)CC2
/	10.0	Cc1cc(-c2csc(-c3ccccc3)n2)c(C)n1-c1nccs1
/	13.0	CN1C(=O)c2ccccc2C(C(=O)N2CCCCCC2)C1c1c[nH]c2ccccc12 (stereo unspecified)
-2.8	3.0	N#Cc1ccccc1CS(=O)(=O)c1nc2ncccc2[nH]1
3.4	/	O=C(O)CN1C(=O)/C(=C\c2cccc(OC(=O)c3ccccc3)c2)SC1=S
-8.5	8.0	CCN(Cc1ccncc1)C(=O)c1cccc(C(F)(F)F)c1
29.2	4.0	O=C(O)c1ccc(NC(=O)c2ccc3c(c2)C(=O)N(Cc2ccco2)C3=O)cc1
24.6	15.0	O=C1N/C(=N\S(=O)(=O)c2ccccc2)S/C1=C/c1ccco1
1.8	13.0	O=C1c2ccccc2C(O)(c2ncc[nH]2)N1CCc1ccccc1 (stereo unspecified)
17.1	0.0	CC1(C)CC(=O)C2=C(C1)Nc1ccccc1S2

Continuation.
MgrA-DNA mod	S aureus helic	canonical_smiles
-1.7	/	Cc1ccc(Nc2nc3nonc3nc2Nc2ccc(O)cc2)cc1C
-6.2	-1.0	CCc1ccccc1NC(=O)C(C(C)C)N1C(=O)c2ccccc2C1=O (stereo unspecified)
/	38.0	COc1cc2nc(NCCCN3CCCCC3C)n3nc(-c4cccnc4)nc3c2cc1OC (stereo unspecified)
-0.5	/	CC(Oc1ccc(Cl)cc1Cl)/C(N)=N/O (stereo unspecified)
3.3	-10.0	CCC1CCCCN1C(=O)CNc1ccc(C)cc1Cl (stereo unspecified)
/	22.0	CC1=CS/C(=C(/C#N)c2nnc(N3CCOCC3)n2-c2ccccc2)N1c1ccc(OC(F)F)cc1
/	6.0	CCCn1c(NC(=O)CCCc2nc3ccccc3c(=O)[nH]2)nc2ccccc21
-0.9	22.0	CC(=O)Nc1ccccc1NC(=O)c1ccccc1
/	13.0	Cc1cccc(C)c1OCCCN1CCCCC1
/	37.0	Cc1nn(CCCC(=O)N2CCCCC2)c(=O)c2cc3sccc3n12
/	0.0	Cn1c(C(=O)N/N=C/c2cccs2)cnc1SCc1ccc(Cl)cc1
1.1	/	O=S(=O)(CC(O)c1ccc(Cl)c(Cl)c1)c1ccc(Br)cc1 (stereo unspecified)
-0.6	/	COc1ccc(CC(=O)Nc2ccc(-c3cnco3)cc2)cc1OC
0.8	/	CCOC(=O)c1cc(C(=O)OC)c(C)nc1N1CCCN(Cc2ccc(F)cc2)CC1
-0.6	8.0	COc1ccc(S(=O)(=O)N(CC(=O)Nc2ccc3c(c2)OCCO3)c2ccccc2)cc1OC

Additional entries
MgrA-DNA mod	S aureus helic	canonical_smiles
-1.3	/	O=C(O)CCC(=O)N1N=C(c2ccc([N+](=O)[O-])cc2)CC1c1ccccc1Cl (stereo unspecified)
-1.4	9.0	CCOc1ccc(C(=O)NC2CCN(C(=O)NCc3ccccc3)CC2)cc1
-1.8	/	CCN(CC)C(=O)c1cc(O)cc(O)c1
-5.8	-24.0	CC1CCCC(C)N1C(=O)COC(=O)c1ccc(Cl)cc1Cl (stereo unspecified)
/	-10.0	CC(=O)Nc1cccc(-n2nnc(SCC(=O)c3ccc4c(c3)OCCCO4)n2)c1
/	-15.0	NC(=O)N/N=C/c1cccn1-c1ccc(C(F)(F)F)cc1
0.1	/	COc1cc(C2NC(=O)NC(C)=C2C(=O)OC2CCCCCC2)cc(Br)c1O (stereo unspecified)
/	-13.0	O=C1c2ccccc2-c2cccc(C(=O)N3CCCCC3)c21
/	-2.0	COc1cc(C2C(C(=O)c3ccco3)=C(O)C(=O)N2CC2CCCO2)ccc1O (stereo unspecified)
/	7.0	CN(C)c1ccc(/C=N/n2ncc3ccccc32)cc1
/	-15.0	CC12CCC(C(=O)Nc3nccs3)(CC1=O)C2(C)C (stereo unspecified)
/	-15.0	COc1ccccc1N1CCN(C(=O)Cn2nc(C(F)(F)F)c3c2CCC3)CC1
/	7.0	CC(C)(C)C1CCC(=NNc2ccc(C(=O)O)cc2)CC1 (stereo unspecified)
0.7	-5.0	COc1ccc(-c2nc3c4ccccc4[nH]c(=O)n3n2)cc1
/	4.0	C=CCn1c(=N)n(CC(=O)c2cccs2)c2ccccc21

An excerpt of these results, in markdown.
| SMILES | MgrA-DNA mod | S aureus helic |
| --- | --- | --- |
| CC(=O)Nc1ccc(C(O)(C(F)(F)F)C(F)(F)F)cc1 | -1.5 | -10.0 |
| COC(=O)C(CO)NC(=O)c1ccccc1 (stereo unspecified) | 0.0 | 13.0 |
| Cc1ccc2c(c1)sc(=NC(=O)c1cc(Cl)sc1Cl)n2C | / | -18.0 |
| CCOCC(=O)Nc1c(C(=O)Nc2ccc(F)c(F)c2)oc2ccccc12 | / | 5.0 |
| O=C(CSc1nnc(SCC(=O)NCCSCc2ccco2)s1)NCCSCc1ccco1 | -1.5 | / |
| Cc1cccc(C#CCN2CCCCC2)c1 | 1.6 | 7.0 |
| COc1cc(/C=C2/SC(=O)N(c3ccc(C)cc3)C2=O)ccc1O | / | -135.0 |
| O=S(=O)(NCCCn1ccnc1)c1cc(Cl)ccc1Cl | -1.0 | 19.0 |
| CCOC(=O)c1sc(N)c(C#N)c1COC(=O)c1ccc2c(=O)n3c(nc2c1)CCC3 | / | -233.0 |
| CCOc1ccc(C(=O)NCC(=O)N2CCCC2)cc1 | / | 26.0 |
| Cc1cc(Oc2ccccc2F)nc(N)n1 | / | -4.0 |
| CN1Cc2cccc(C(=O)O)c2C1=O | / | 13.0 |
| Cc1cc(S(=O)(=O)N2CCN(Cc3ccccc3)CC2)c(Cl)cc1Cl | -1.5 | / |
| O=C(Nc1cccc(O)c1)c1noc2c1CCCC2 | / | 4.0 |
| Oc1ccc(C=Nc2ccc(N3CCOCC3)cc2)cc1O | -1.1 | 2.0 |

Further results follow:
MgrA-DNA mod	S aureus helic	canonical_smiles
2.6	10.0	CC(=O)N(Cc1cccs1)C1CCOC(C)(C)C1 (stereo unspecified)
-1.1	/	O=S1(=O)CC(Sc2ccccc2)c2ccccc21 (stereo unspecified)
0.6	4.0	Cn1nc(-c2ccc(N3CCCCC3)c(NC(=O)c3ccccc3)c2)c2ccccc2c1=O
/	5.0	CCc1nn(CC(=O)NCc2ccc3c(c2)OCO3)c(=O)c2cc3sccc3n12
/	-54.0	O=C(Cn1nnc(-c2ccccc2)n1)N/N=C/c1ccc(N2CCOCC2)s1
-2.1	/	CC(=O)Nc1ccc(SC(=O)c2cc(C)n(Cc3ccc(C)cc3)n2)cc1
/	11.0	CSc1nnc2c(n1)OC(/C=C/c1ccco1)Nc1ccccc1-2 (stereo unspecified)
-1.9	/	O=C(O)CC1(CC(=O)NCc2csc(-c3cccs3)n2)CCCCC1
/	-8.0	C/C(N)=C(/C#N)C(=O)Cn1nnc2ccccc2c1=O
-5.2	2.0	O=S(=O)(Nc1cccc(C2OCCCO2)c1)c1ccccc1
-1.6	/	CCC(CO)NC(=O)c1cc(OC)c(OC)c(OC)c1 (stereo unspecified)
/	15.0	CC(C)OC(=O)C1C2C=CC3(CN(CC4CCCO4)C(=O)C13)O2 (stereo unspecified)
/	-10.0	CCCSc1nsc(NC(=O)CCc2nc3ccccc3c(=O)[nH]2)n1
/	-12.0	CSc1nc(N)nc2sc3c(O)cc(=O)[nH]c3c12
/	15.0	O=c1oc2cc(Oc3ncnc4c3oc3ccccc34)ccc2c2c1CCC2

Screening results: PubChem, ICCB-Longwood Screening Facility, Harvard Medical School

These rows are one share of the data; rates above refer to the full screens.
